Screens from PubChem BioAssay.
AID923: qHTS Assay for Allosteric/Competitive Inhibitors of Caspase-1: Spectroscopic Profiling in AFC Spectral Region; compound fluorescence, AFC spectral region (405/520 nm); almost no hit is shown here; 1.1% of 75,000 active; Potency, µM (doses to about 57.5 µM), without a hit: at the highest dose fluorescence increase, hits mostly activators; active means well fitted activation curve with a large enough effect; inconclusive means small, poorly fitted or top-dose-only effect;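 further: potency means the concentration at half of the fitted maximal effect; 0% is about no effect; scaled to a free AFC standard on each plate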
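Compound autofluorescence profiled at 405 nm ex/520 nm em during kinetic caspase 1 run (50 nM enzyme, 5 uM Ac-WEHD-AFC, HEPES pH 7.5, 10 mM DTT). Titration up to 57 uM; baseline from regression intercept, normalized to AFC standard curve.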
TSHR ag: qHTS Assay for Agonists of the Thyroid Stimulating Hormone Receptor; HEK293-CNG-TSHR cells (CNG channel as cAMP sensor), membrane potential dye, cAMP; Potency, µM (titrated, usually from 57.1 µM), for the others: at the top dose activation, actives largely listed as activators; 0.48% of 73,000 active; AID 926, 2007; active = well fitted activation curve of enough size with the parental cells flat; inconclusive = any curve in the parental cells; inactive = parental cells flat and receptor cells flat or falling; further: potency means the concentration at half of the fitted maximal effect; % of control where 0% means no effect; weak receptor curves with flat parental cells got no call and are not listed
Target sequence (P16473 whole entry, looked up): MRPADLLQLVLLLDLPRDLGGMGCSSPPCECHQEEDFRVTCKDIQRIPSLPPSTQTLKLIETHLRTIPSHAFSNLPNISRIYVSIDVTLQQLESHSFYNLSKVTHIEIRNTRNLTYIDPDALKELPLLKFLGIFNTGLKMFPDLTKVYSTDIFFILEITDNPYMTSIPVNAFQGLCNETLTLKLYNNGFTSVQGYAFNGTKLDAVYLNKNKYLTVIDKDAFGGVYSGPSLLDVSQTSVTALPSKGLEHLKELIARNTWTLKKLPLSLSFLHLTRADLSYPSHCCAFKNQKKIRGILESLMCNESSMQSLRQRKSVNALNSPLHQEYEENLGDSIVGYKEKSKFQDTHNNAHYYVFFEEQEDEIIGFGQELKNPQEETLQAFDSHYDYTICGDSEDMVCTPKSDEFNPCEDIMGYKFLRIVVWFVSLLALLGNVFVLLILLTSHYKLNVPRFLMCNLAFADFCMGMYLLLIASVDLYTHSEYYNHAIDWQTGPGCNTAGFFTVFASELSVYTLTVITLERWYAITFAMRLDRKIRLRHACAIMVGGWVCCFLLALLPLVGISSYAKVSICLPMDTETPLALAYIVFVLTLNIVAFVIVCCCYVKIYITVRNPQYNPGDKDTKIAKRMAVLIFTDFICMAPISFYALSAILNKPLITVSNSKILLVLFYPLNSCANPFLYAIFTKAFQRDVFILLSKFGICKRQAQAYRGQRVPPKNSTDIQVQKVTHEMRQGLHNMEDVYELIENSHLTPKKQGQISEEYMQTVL
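HEK 293 cells stably expressing TSHR and a modified CNG channel, with CNG-only parental cells as counterscreen, were preloaded 60 min at room temperature with membrane potential dye containing 100 uM RO 20-1724. Compound exposure was 30 min, and depolarization was read as fluorescence at 590 nm.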
Resorufin autofl: qHTS Assay for Spectroscopic Profiling in Resorufin Spectral Region; Compound fluorescence, resorufin region 547/598 nm, buffer; active compounds read high; max dye-equivalent concentration, M; 0.04% of 59,000 active; AID 588, 2007; active = above 10 nM dye equivalent; inconclusive = 1 to 10 nM; inactive = 1 nM or less; a few of its hits are not listed in these tables; further: highest value over a series up to 38 µM
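Intrinsic fluorescence profiled in the resorufin window (ex 547 nm, em 598 nm) after 15 min at room temperature in pH 8.0 Tris buffer (100 mM); responses normalized against a six-point resorufin standard series as dye-equivalent concentration.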
A488 fluor: qHTS Assay for Spectroscopic Profiling in A488 Spectral Region; max dye equivalency, M; compound autofluorescence, A488 spectral region, dye equivalency; active compounds read high; 0.1% of 59,000 active; active = above 10 nM dye equivalent; inconclusive = 1 to 10 nM; inactive = 1 nM or less; about half of its hits are not listed in these tables;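 further: highest value over a series up to 38 µM; compound alone in buffer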
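Spectroscopic profiling in the A488 region: compounds in pH 8.0 Tris (100 mM), 15 min RT, CCD imaging with 480 nm excitation and 540 nm emission; responses normalized against A488 dye standards.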
A647 autofl: qHTS Assay for Spectroscopic Profiling in A647 Spectral Region. max dye-equivalent concentration, M. Compound fluorescence, A647 channel (570/671 nm), Tris buffer. AID 592, 2007. 59,000 tested, under 10 active; active means above 1 µM dye equivalent; inconclusive means 0.1 to 1 µM; inactive means 0.1 µM or less;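 further: values scaled relative to a standard on each plate; highest value over a series up to 38 µM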
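Each compound's intrinsic fluorescence at 570 nm excitation and 671 nm emission is measured across its concentration series in 100 mM Tris, pH 8.0, after 15 min at room temperature, and reported relative to an A647 curve.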
Numbers without * were called inactive; i = inactive; ? = inconclusive; · = not tested or not shown; [ ] = another dose, or the depositor's remark. An excerpt. The share of hits here may be higher or lower than overall.

SMILES	AID923	TSHR ag	Resorufin autofl	A488 fluor	A647 autofl
COC(=O)C1=C(C(C)=O)C(c2ccc(C(=O)OC)cc2)n2nnnc2N1 (configuration not stated)	0.5%	6.2%	i	i	8.9e-09
CCOc1ccc(OCC)c(NS(=O)(=O)c2ccc3c(c2)n(C)c(=O)c(=O)n3C)c1	-2.3%	3.0%	i	i	8.4e-09
Cc1ccc2c(c1)N(CC(=O)NC1CCCc3ccccc31)C(=O)CO2 (configuration not stated)	-2.7%	?	i	i	1e-09
CCOc1c2c(nc3ccc(Cl)cc13)CCC2	0.3%	?	i	i	1e-09
CCCOc1ccc(N2C(=O)CC(SCCN)C2=O)cc1 (configuration not stated)	0.8%	0.9%	i	i	1e-09
O=C(Nc1nccs1)c1ccc(S(=O)(=O)NCc2cccs2)cc1	0.0%	7.2%	i	i	4.83e-08
Cc1cccc(Nc2nc3c(c(=O)n(C)c(=O)n3C)n2CC(O)CO)c1 (configuration not stated)	-0.4%	-14.1%	i	i	7.2e-09
CC#CC(C)C(OCOC)C(CC(C)Cc1cc(Br)cc(OCc2ccccc2)c1OC)OC (configuration not stated)	0.6%[11.5 µM]	7.6%[11.4 µM]	·	·	·
Cc1nn(C)cc1CNC(=O)CCC(=O)O	1.2%	0.9%	i	i	1e-09
O=C(O)COc1ccc(OCCNC[C@@H](O)COc2ccccc2)cc1	-3.5%	2.7%	·	·	·
CCOC(=O)c1ccc(NS(=O)(=O)c2ccc3c(c2)CCCN3C(C)=O)cc1	-0.7%	8.4%	i	i	1e-09
c1ccc2c(Oc3ccc4c(c3)OCO4)nncc2c1	-0.2%	1.4%	i	i	8.1e-09

Other records
SMILES	AID923	TSHR ag	Resorufin autofl	A488 fluor	A647 autofl
CCCc1cc(=O)n2[nH]c(NCc3c(F)cccc3Cl)nc2n1	-0.3%	16.6%	i	i	1e-09
CCCCOC(=O)C1=C(C)NC2(O)c3ccccc3C(=O)C12O (configuration not stated)	0.6%	0.9%	i	i	1e-09
COc1cccc(OC)c1C(=O)n1nc(C)cc1C	-0.8%	22.6%	i	i	3.87e-08
CCCCn1nnnc1SCC(=O)Nc1ccc(F)cc1	0.3%	-3.6%	i	i	2.6e-09
c1cncc(-c2nc(N3CCNCC3)c3ccccc3n2)c1	0.9%	11.4%	i	i	1e-09
COC(=O)C1CCC(C)(C(=O)Nc2ccccc2)C1(C)C (configuration not stated)	-0.2%	·	i	i	4.06e-08
NCCn1c(=O)c(CCc2ccccc2)nc2cncnc21	3.9%	-7.7%	i	i	1e-09
CCCNC(=O)N1CCN(S(=O)(=O)c2ccc(C)cc2)CC1	-1.3%	-1.5%	i	i	2.73e-08
CCCOc1ccc2oc(=O)c3c(c2c1)CCCN3C(=O)CN1CCc2ccccc2C1	0.2%	?	i	i	1.15e-08
CC(=O)c1cccc(-n2nnnc2SCC(=O)Nc2ccccc2N2CCCCC2)c1	-0.4%	?	i	i	2.7e-08
CCOCCCN(C(=O)Nc1ccc(CC)cc1)C1CCN(C(C)=O)CC1	-1.8%	-1.1%	i	i	2.7e-08
COc1ccc(S(=O)(=O)Nc2cc(C)on2)cc1OC	-0.2%	-1.6%	i	i	1.02e-08

(further entries)
SMILES	AID923	TSHR ag	Resorufin autofl	A488 fluor	A647 autofl
CCCCn1c(C(C)NC(=O)CC)nc2ccccc21 (configuration not stated)	0.4%	-2.7%	·	·	·
O=S(=O)(c1ccccc1)N1CCN(c2nnnn2-c2ccccc2)CC1	-0.4%	0.6%	i	i	2.5e-08
CCOC(=O)Nc1cccc(OCC(=O)Nc2ccc(OC)cc2OC)c1	-0.3%	?	i	i	1e-09
Cc1oc2cc3c(C(=O)N4CCCCC4)c(C)oc3cc2c1C(=O)N1CCCCC1	0.9%	8.5%	i	i	9e-09
CCN(CC)C(=O)CN1CCN(c2ccccc2F)CC1	-0.6%	-4.4%	i	i	4.6e-09
COc1ccc(C(=O)N2CCC3(CCCN(CC(C)C)C3)CC2)cc1	2.8%	22.8%	i	i	2.2e-09
O=C(O)c1sccc1S(=O)(=O)c1ccccc1	-0.9%	10.7%	i	i	3e-09
COc1ccc(OC)c(S(=O)(=O)Nc2ccc(CC(=O)O)cc2)c1	-0.7%	-0.1%	i	i	3.53e-08
Cc1cc(C)nc(NC(=O)c2cccc(Cl)c2)n1	2.0%	-5.3%[11.4 µM]	·	·	·
NC(=O)C1CCN(c2ncnc3c(-c4ccccc4)nsc23)CC1	-2.7%	-15.1%	i	i	7.6e-09
O=C(NCCc1ccccc1)c1noc2c1CCCCC2	-0.8%	9.3%	i	i	1e-09
c1ccc(-n2ncc3c2ncn2cnnc32)cc1	1.3%	2.4%	i	i	7.7e-09

Full records, quoted from the list. Values in the order: AID923, TSHR ag, Resorufin autofl, A488 fluor, A647 autofl
Record of Cc1cc(C)nc(NC(=O)c2cccc(Cl)c2)n1 → 2.0%, -5.3%[11.4 µM], ·, ·, ·
Record of COc1ccc(OC)c(S(=O)(=O)Nc2ccc(CC(=O)O)cc2)c1 → -0.7%, -0.1%, i, i, 3.53e-08
Record of O=C(O)c1sccc1S(=O)(=O)c1ccccc1 → -0.9%, 10.7%, i, i, 3e-09
Record of CCN(CC)C(=O)CN1CCN(c2ccccc2F)CC1 → -0.6%, -4.4%, i, i, 4.6e-09

(more compounds)
SMILES	AID923	TSHR ag	Resorufin autofl	A488 fluor	A647 autofl
Cc1ccc(C(C(=O)NCc2ccco2)N(CC2CCCO2)C(=O)Cn2nnc3ccccc32)cc1 (configuration not stated)	-0.9%	?	i	i	1.73e-08
CN1C(=O)C2(NCCc3c2[nH]c2ccccc32)c2ccccc21 (configuration not stated)	0.6%	36.0%	i	i	1.88e-08
CCC/C(O)=C1\C(=O)CC(C)(C)CC1=Nc1ccccc1OC	2.3%	?	·	·	·
Cc1ccc(O)c(C(CC(=O)N2CCCC2)c2ccccc2)c1 (configuration not stated)	0.4%	11.1%	·	·	·
O=C(c1cccc(Cl)c1)N1CCN(C(=O)c2ccccc2F)CC1	·	·	i	i	7.8e-09
COc1cc(NC(=O)Cc2ccc(Cl)cc2)ccc1NC(=O)c1ccco1	0.0%	-0.1%	i	i	2.87e-08
O=C(Cc1cccs1)Nc1nc(-c2ccccc2)cs1	-1.7%	22.2%	i	i	5.8e-09
CCOC(=O)C1=C(C)NC(C)=C(C(=O)OCC)C1c1nc2ccccc2[nH]1	-0.9%	5.7%[11.4 µM]	·	·	·
Cc1ccc(SCC(=O)N2CCCC2)cc1	1.8%	7.1%[11.4 µM]	·	·	·
O=C(C[N+]1(c2ccccc2)CCOCC1)c1ccccc1	-0.3%[11.5 µM]	1.6%[11.4 µM]	i	i	9.3e-09
CCOC(=O)N1CCN(C(=O)c2ccc(NC(=O)c3ccc(C)cc3)cc2)CC1	2.0%	-12.9%	i	i	2.34e-08
COc1ccc(OCCCSc2ncccn2)cc1	-0.9%	-1.1%	·	·	·

Other entries follow.
SMILES	AID923	TSHR ag	Resorufin autofl	A488 fluor	A647 autofl
C#CCCCC(=S)Nc1ccccc1	-2.4%	-1.7%	·	·	·
Nc1nonc1/C(=N/O)N1CCCC1	-4.6%	-4.8%	i	i	3.4e-09
O=C(CCN1C(=O)C2C3C=CC(C3)C2C1=O)NCC1CCCO1 (configuration not stated)	-0.8%	1.8%	i	i	7e-09
O=C(Nc1ccccc1C(F)(F)F)c1ccc(F)c(S(=O)(=O)N2CCOCC2)c1	-2.6%	23.5%	i	i	1.3e-09
COc1ccc(N2C(=O)C3CCCN3C2c2ccccc2)cc1Cl (configuration not stated)	0.8%	8.9%	i	i	1e-09
COc1cccc(C(=O)Nc2cccc(-c3nnc(-c4ccccc4)o3)c2)c1	-1.1%	?	·	·	·
CCc1nnc(NC(=O)Cn2nc(-c3ccccc3OC)ccc2=O)s1	1.9%	-0.7%	i	i	5.8e-09
CCOC(=O)CNC(=O)C1CCCN(c2ncccn2)C1 (configuration not stated)	0.9%	?	i	i	2.08e-08
N#Cc1nc(-c2ccc(Cl)cc2)oc1N1CCCCC1	·	·	i	i	1.54e-08
CC1CCc2c(C(=O)NCC3CCCO3)csc2C1 (configuration not stated)	0.0%	3.9%[11.4 µM]	i	i	1.97e-08
CNC[C@@H](SC)c1ccc(O)c(O)c1	2.5%[11.5 µM]	-7.7%[11.4 µM]	i	i	1.24e-08
Cc1nn(C(C)C(=O)O)c2ccccc12 (configuration not stated)	-2.1%	5.3%	i	i	2.06e-08

More records:
SMILES	AID923	TSHR ag	Resorufin autofl	A488 fluor	A647 autofl
COC(=O)c1sc(NC(=O)c2oc3ccccc3c2C)nc1C	·	·	i	i	4.44e-08
Cc1cc2ncn(C3CC(=O)N(Cc4ccc(N5CCCC5=O)cc4)C3=O)c2cc1C (configuration not stated)	-1.6%	0.2%	·	·	·
COC(=O)c1ccc(N2CCOCC2)c(NC(=O)Nc2cccc(OC)c2)c1	3.9%	-6.5%	·	·	·
Cc1cc(C)n(CCCNCC(O)c2ccccc2)n1 (configuration not stated)	-2.1%	8.4%	i	i	1e-09
COc1cccc(-c2nc(CS(=O)(=O)CC(=O)NCCCOC(C)C)c(C)o2)c1	-1.0%	-0.4%	i	i	1e-09
CC(C(=O)NCc1ccc2c(c1)OCO2)N1c2cccc3cccc(c23)S1(=O)=O (configuration not stated)	1.5%	?	i	i	4.6e-09
Cc1ccc2[nH]c(=O)c(CN(Cc3cccnc3)C(=O)c3ccncc3)cc2c1	0.8%	2.6%	i	i	2.7e-09
CCCCC(=O)Nc1ccc(NC(=O)c2ccccc2OC)cn1	0.7%	2.2%	i	i	2.83e-08
CCOC(=O)c1nnc2cc(-c3ccc(Br)cc3)nn2c1C	-2.2%	-0.1%	i	i	2.9e-09
c1ccc2c(NCCN3CCOCC3)nc(-c3ccoc3)nc2c1	1.8%	?	i	i	2.43e-08
CCC(C)c1ccccc1NC(=O)c1cccnc1 (configuration not stated)	-0.5%	9.6%	i	i	1.9e-09
Cc1onc(-c2ccccc2Cl)c1C(=O)NCc1nc(-c2ccccc2)no1	-1.2%	?	i	i	3.71e-08

(more compounds)
SMILES	AID923	TSHR ag	Resorufin autofl	A488 fluor	A647 autofl
CC1CCN(C(=O)Cc2nn(C)c(=O)c3ccccc23)CC1	1.5%	19.5%[11.4 µM]	i	i	1.9e-09
C=CCn1c(=N)c(C(=O)OCC)cc2c(=O)n3cccc(C)c3nc21	·	·	i	i	1.1e-09
Cc1cc(C(=O)Nc2cccc(C(=O)O)c2)oc1C	0.1%	2.7%	i	i	2.22e-08
CC(NC(=O)c1ccncc1)C(c1cccs1)N1CCOCC1 (configuration not stated)	4.8%	-5.4%	i	i	1.52e-08
CCOc1ccccc1NC1c2ccccc2C(=O)N1c1cccnc1 (configuration not stated)	-0.7%	17.9%	i	i	1.19e-08
CCOC(=O)N1CCC(NC(=O)CN2C(=O)CSc3nc(C)cc(C)c32)CC1	2.8%	-0.5%	·	·	·
COc1ccc(C(=O)c2cnc(C(C)C)n2C)cc1	1.7%	5.5%	·	·	·
COc1ccc(C(C)C)cc1S(=O)(=O)NCc1ccccn1	-1.4%	11.0%	i	i	6.9e-09
COCCn1c(SCC(=O)N(C(C)C)C(C)C)nnc1-c1cc2ccccc2cc1O	-1.1%	·	i	i	1.74e-08
